From PubChem BioAssay
Env fusion inh = HIV envelope-mediated fusion inhibition. HeLa-JRFL Env/CEM21 cell fusion, luciferase. inhibition, % at 12.3 µM. 360,000 tested, 1.1% active. AID 651610;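 active = mean replicate inhibition score of at least 50 and every replicate individually at or above 50; inconclusive = only one of the two criteria met; inactive = mean below 50 and not all replicates reaching 50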;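 note: 0% = plate neutral controls and 100% = maraviroc near 300 nM; one replicate is shown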
MT1-MMP act inh = MT1-MMP (human) activation inhibition | P50281 | HT1080 RFP-PRO-GFP cells, GFP/RFP ratio fluorescence, overnight; percent of plate control window, DMSO zero | GFP/RFP ratio change, % at 20 µM | 360,000 tested, 0.061% active;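 active = GFP/RFP ratio change of at least 30% with cell ATP level not reduced by more than half and red fluorescence within 50% of control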; note: strong numbers were not always called active
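Read-out: GFP/RFP fluorescence ratio; Test system: RFP-PRO-GFP reporter HT1080 cells; Compound dosing: single-point 20 µM compound, 1% DMSO; Times: overnight compound exposure at 37 °C.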
CSC inhib = blocks cancer stem cells. cancer stem cell-like cells viability, luminescence. inhibition, % at 7.5 µM. 300,000 tested, 1.1% active. AID 2717;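 active = mean at 75% or more and at least half the replicates too; inconclusive = mean and replicates disagree; tested in HMLE shEcad cells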;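 note: 0% = median of negative and 100% = median of positive control wells; the first replicate is given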
eIF4H inh = inhibitors of RNA binding by human eIF4H. inhibition, % at 35 µM. eIF4H fluorescence polarization binding assay. AID 2012. 290,000 tested, 0.94% active. Q15056;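 active = 50% or more with normal probe brightness, or confirmed in later tests; inconclusive = above 50% with abnormal brightness, or retests that disagree; inactive = below 50% or failed in later tests; about a fifth of its hits are not listed in these tables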;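 note: calls also rest on retests at 20 µM and on dose response follow-up; 0% = protein and probe with vehicle and 100% = probe without protein; strong numbers were not always called active; many hits fall short of the cut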
UUG fidelity = yeast start codon fidelity modulation. S. cerevisiae UUG-firefly luciferase reporter, luminescence/redox ratio. activity score, % at 18.7 µM. 350,000 tested, 0.13% active;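 active = replicate mean at a twofold rise or more, about +100% in these data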;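 note: firefly luciferase made from a UUG start codon reports start codon fidelity; reporter light over untreated wells divided by growth signal over untreated wells; some hits fall short of that in this replicate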
Rce1 inhib = blocks yeast Ras-converting enzyme; yeast membranes, quenched prenylated peptide cleavage fluorescence; calls only; 290,000 tested, 0.27% active;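 active = fall in fluorescence gain of 50% or more versus controls, with final raw signal at or below 3038400; inconclusive = same 50% fall but final raw signal above 3038400; inactive = fall in fluorescence gain under 50%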;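 note: plate controls were neutral control wells for no effect and wells lacking membranes for full effect; tested at 10 µM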
Target sequence (Q03530 whole entry, looked up): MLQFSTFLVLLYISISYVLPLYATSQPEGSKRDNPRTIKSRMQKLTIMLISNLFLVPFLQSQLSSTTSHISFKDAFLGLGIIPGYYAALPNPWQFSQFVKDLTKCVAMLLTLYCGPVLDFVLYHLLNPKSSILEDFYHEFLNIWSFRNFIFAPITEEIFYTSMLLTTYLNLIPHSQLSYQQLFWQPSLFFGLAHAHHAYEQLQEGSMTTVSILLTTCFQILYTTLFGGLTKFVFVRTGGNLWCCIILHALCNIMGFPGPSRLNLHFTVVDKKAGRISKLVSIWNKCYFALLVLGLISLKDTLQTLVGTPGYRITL
PABP polyA inh = PABP-poly(A) binding inhibition. P11940. PABP-poly(A) RNA binding, fluorescence polarization. inhibition, % at 35 µM. 290,000 tested, 1% active. AID 2014;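 active = 50% or more with normal probe brightness, or confirmed in later tests; inconclusive = above 50% with abnormal brightness, or retests that disagree; inactive = below 50% or failed in later tests; about a fifth of its hits are not listed in these tables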;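 note: calls also rest on retests at 20 µM and on dose response follow-up; controls were probe without protein and protein plus probe with vehicle; some compounds called inactive have numbers as strong as hits; many hits fall short of the cut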
Target sequence (P11940 whole entry, looked up): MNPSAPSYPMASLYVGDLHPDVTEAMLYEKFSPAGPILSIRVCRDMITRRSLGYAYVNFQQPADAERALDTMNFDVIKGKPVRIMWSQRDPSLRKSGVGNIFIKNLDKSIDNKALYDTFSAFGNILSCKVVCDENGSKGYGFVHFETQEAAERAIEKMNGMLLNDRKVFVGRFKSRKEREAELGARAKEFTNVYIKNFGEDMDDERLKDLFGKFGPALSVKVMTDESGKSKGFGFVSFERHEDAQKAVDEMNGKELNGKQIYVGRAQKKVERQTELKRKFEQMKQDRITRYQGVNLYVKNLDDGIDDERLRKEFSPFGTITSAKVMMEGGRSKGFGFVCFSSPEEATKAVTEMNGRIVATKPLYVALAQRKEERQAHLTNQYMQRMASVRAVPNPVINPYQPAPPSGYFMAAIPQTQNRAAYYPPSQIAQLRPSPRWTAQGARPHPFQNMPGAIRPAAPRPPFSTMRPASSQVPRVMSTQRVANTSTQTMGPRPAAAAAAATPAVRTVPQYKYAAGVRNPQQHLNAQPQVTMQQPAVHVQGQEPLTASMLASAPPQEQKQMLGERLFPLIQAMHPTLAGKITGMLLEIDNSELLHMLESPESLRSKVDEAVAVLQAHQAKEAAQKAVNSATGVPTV
eIF4H inh retest = second read-out of eIF4H inh, no call of its own (marks repeat the call); inhibition, %; compound at 20 µM; confirmation average;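 mean of two retest wells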
PABP polyA inh retest = recorded beside PABP polyA inh, whose call it bears; inhibition, %; compound at 20 µM; confirmation repeats;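 mean of two retest wells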
MT1-MMP act inh RFP = further read-out of MT1-MMP act inh, marked with its call; RFP signal change, %; measured here: RFP expression control read;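 0 = vehicle wells; hits needed this value within 50% of zero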
* marks the source's active call; other numbers are inactive results; i = inactive; ? = inconclusive; / = no result given; & = joins results of further samples. Not all compounds are listed. The share of hits here may be higher or lower than overall.

SMILES	Env fusion inh	MT1-MMP act inh	MT1-MMP act inh RFP	CSC inhib	eIF4H inh	UUG fidelity	Rce1 inhib	PABP polyA inh	others
C=C(COC(C)=O)CC1CC(O)[C@]2(C)OC3CC4OC5C[C@]6(C)O[C@]7(C)CCC8OC9C[C@]%10(C)OC%11C(C)=CC(=O)OC%11CC%10OC9C[C@@H](C)C8OC7CC6O[C@]5(C)C/C=C\C4OC3CC2O1 (stereo partly drawn)	/	18	-2	/	-1	-2	i	-9
O=C(NC12CC3CC(CC(C3)C1)C2)OC1CN2CCC1CC2 (stereo not drawn)	-2	-6	-4	-18	7	-10	i	4
O=[N+]([O-])c1ccc(Cl)c(Cl)c1Cl	/	-1	5	2	/	-18	/	/
CN1C(=O)C2C[C@@]3(Br)c4ccccc4N(OOSc4ccccc4)[C@H]3N2C(=O)[C@@H]1Cc1ccccc1 (stereo partly drawn)	77*	-4	-8	/	/	0	i	/
CCOc1ccc(NC2=NCCCS2)cc1	7	3	1	9	6	-8	i	2
C#C[C@]1(O)CCC2C3CC=C4C[C@H](O)CC[C@]4(C)C3CC[C@@]21C (stereo partly drawn)	-2	7	6	/	/	1	/	/
O=C(c1ccc2c3c(cccc13)CC2)C1CCCN(Cc2ncc[nH]2)C1 (stereo not drawn)	36	-1	4	-15	-8	/	i	-15
COc1ccc(CNC(=O)CCC(=O)N2C[C@H]3C[C@H](C2)c2cccc(=O)n2C3)cc1OC	/	1	3	-16	-3	-8	i	-6
COc1ccccc1-n1c(Cc2ccccc2)nc2ccccc2c1=O	-1	-6	-3	-2	1	0	i	7
CN(C)C(Cc1ccccc1)C(=O)c1ccccc1 (stereo not drawn)	-28	1	3	2	0	/	i	4

The last two entries of the part before lead into the next:
SMILES	Env fusion inh	MT1-MMP act inh	MT1-MMP act inh RFP	CSC inhib	eIF4H inh	UUG fidelity	Rce1 inhib	PABP polyA inh	others
COc1ccccc1-n1c(Cc2ccccc2)nc2ccccc2c1=O	-1	-6	-3	-2	1	0	i	7
CN(C)C(Cc1ccccc1)C(=O)c1ccccc1 (stereo not drawn)	-28	1	3	2	0	/	i	4
Cc1ccc(OC(=O)N(C)C[C@H]2OCc3cnnn3CCCC(=O)N([C@@H](C)CO)C[C@H]2C)cc1	6	1	-1	/	/	-17&2&7	/	/
Cn1c2ccccc2c2c(C(=O)N3CCC4(CC3)OCCO4)cn(C3CCCCC3)c(=O)c21	-44	4	1	2	0	-16	i	5
CCn1c(=O)cc(SCC(=O)N2CCC3(CC2)OCCO3)c2ccccc21	-60	12	6	-1	0	-14	i	12
COc1ccc(C2(c3cccc(O)c3OC)CCN(C(C)=O)CC2)cc1O	-1	3	5	-4	/	-9	i	/
Cc1cc2c(cc1C)NP(=S)(c1ccccc1)N2	-119	1	2	/	/	-27	/	/
CC(C)COC(=O)N1Cc2ccccc2-n2nncc2C1	-13	-1	-1	/	/	3	/	/
O=C(N/N=C/c1c(O)n(Cc2ccccc2)c(=O)[nH]c1=O)c1ccncc1	-8	-12	-3	0	5	-23	i	17
CC(=O)c1ccc(OCC(=O)N2CCCC(N(C)Cc3ccccc3)C2)cc1 (stereo not drawn)	-3	0	1	-10	0	-2	i	5
Oc1ccc2c3c1O[C@H]1c4[nH]c5ccccc5c4C[C@@]4(O)[C@@H](C2)N(CC2CC2)CC[C@]314	8	-6	-2	-4	/	-10	/	/
CCC(C)n1c(O)c(C(c2ccccn2)c2c(O)n(C(C)CC)c(=S)[nH]c2=O)c(=O)[nH]c1=S (stereo not drawn)	/	15	20	-11	1	-36	i	18
O=C(COc1ccc(Cl)cc1)NCCc1cnc[nH]1	6	8	6	-2	-2	-5	i	-3
COC12C(COC(N)=O)C3=C(C(=O)C(C)=C(N)C3=O)N1CC1C2N1C (stereo not drawn)	/	-4	2	-3	34	-14	i	26
COc1cccc(N2C(=O)NC(=O)/C(=C/c3ccc4c(c3)Cc3ccccc3-4)C2=O)c1	-22	-11	-3	17	53	-8	i	4	eIF4H inh retest=-11;PABP polyA inh retest=0
CN1C(=O)C(=Cc2cccnc2)C(=O)N(C)C1=O	-10	0	3	-16	-20	/	i	-12
C[C@]12CCC3[C@@H](CCC4=CC(=O)CC[C@@]43C=O)C1CCC2=O (stereo partly drawn)	10	3	3	47	2	-1	i	-2
CCCCn1c(NC(=O)c2ccc(Br)o2)c(C(=O)OCC)c2nc3ccccc3nc21	15	-85	10	13	-5	/	i	-5
O=C(c1ccc(Cl)cc1)C12CN3CN(CN(C3)C1)C2	/	3	7	-4	-7	/	i	-7
CC(C)(C)C(=O)Cn1c(NCCCl)nc2ccccc21	-5	0	2	1	-10	-5	i	-3
Cc1ccc(C(=O)O)cc1N=Nc1c(O)[nH]c(=O)[nH]c1=O	-14	-5	1	-2	0	/	i	-13
CC(C)C/C(=N/O)c1c[nH]c2ccccc12	/	8	5	-6	-9	0	i	-4
c1ccc(C[n+]2ccccc2)cc1	11	0	8	-3	/	-14	i	/
NP(=O)(Oc1ccccc1)Oc1ccccc1	-15	-2	2	/	/	-1	/	/
COC(=O)C1=C(c2ccc(C(C)=O)cc2)C[C@@H]2CC[C@H]1N2C(=O)N1CCOCC1	-6	6	6	-6	/	-15	/	/
C/C=C(\C)C(=O)N[C@@H](c1ccccc1)[C@@H](O)C(=O)O[C@H]1C[C@@]2(O)[C@@H](OC(=O)c3ccccc3)C3[C@](C)(C(=O)[C@H](OC(C)=O)C(=C1C)C2(C)C)[C@@H](O)C[C@H]1OC[C@@]31OC(C)=O (stereo partly drawn)	/	-3	-11	40	-5	-4	i	-8
Cn1c(O)c(/C=N/NC(=O)c2ccncc2)c(=O)n(C)c1=S	1	0	26	2	?	-24	i	?
C[C@]1(O)CCC2C3CC[C@H]4C[C@@H](OC(=O)[C@@H](N)CCCCN)CC[C@]4(C)C3CC[C@@]21C (stereo partly drawn)	-18	3	-5	/	/	-13	/	/
CN1C(=O)C(=Cc2ccccc2OCCOc2ccc([N+](=O)[O-])cc2)C(=O)N(C)C1=O	-5	3	-4	17	10	/	i	-1
CCCCCCn1c(O)c(/C=N/N2CCCCCC2)c(=O)[nH]c1=O	-13	-9	-15	9	-4	/	i	-11
CN(C)c1ccc(NC(=O)CN2C(=O)CN=C(c3ccccc3)c3ccccc32)cc1	/	-12	-3	/	34	-1	i	20
O=C1NC(=O)N(c2ccc3c(c2)OCO3)C(=O)/C1=C\c1ccc(N2CCCCC2)o1	-3	-82	8	-7	?	/	i	2
O=C(Nc1cccc(C(F)(F)F)c1)c1cccn(Cc2ccc3c(c2)OC(F)(F)O3)c1=O	21	4	2	47	0	7	i	0
Cc1ccc(-n2nc(C)c3c2NC(=O)CSC3c2ccc3c(c2)OCO3)cc1 (stereo not drawn)	/	-4	-3	-7	7	-25	i	14
CCC1(CCO)C(=O)NC(=S)NC1=O	-9	0	3	/	/	-16	/	/
COc1ccc(C(=O)C2CCCN(Cc3ccccn3)C2)c(OC)c1 (stereo not drawn)	-5	-1	5	31	-12	/	i	0
O=C(O)Cn1cc(C(=O)c2ccccc2F)c2ccccc21	1	1	4	-8	-2	8	i	3
COc1ccc(OCC(=O)N2CCN(C3CCC(c4ccccc4)CC3)CC2)cc1 (stereo not drawn)	21	2	-3	24	3	14	i	-7
CC(C)(C)c1nc(NCc2ccc3c(c2)OCO3)c2nnn(Cc3ccccc3Cl)c2n1	/	3	2	0	4	-11	i	3
CC(=NCCN1CCOCC1)c1c(O)n(C2CCCCC2)c(=O)[nH]c1=O	-19	5	9	-18	4	-5	i	7
COc1ccc(C2=NCc3nnc(C)n3-c3ccc(Cl)cc32)cc1Cl	-3	12	13	37	-10	-7	i	27
O=C(CSC1c2ccccc2-c2ccccc21)N/N=C/c1ccccc1O	61*	-9	-4	83*	6	-14	i	4
COc1ccccc1Cn1c(SCC#N)nc2cc(C(=O)N3CCC4(CC3)OCCO4)ccc2c1=O	5	-4	-7	-7	-8	-8	i	-2
COc1ccc(CC2(CCc3ccncc3)C(=O)NC(=O)NC2=O)cc1OC	-7	1	3	-7	-7	-4	/	4
COc1ccc(C2SCC(=O)Nc3c2c(C)nn3C2CCOC(C)(C)C2)cc1 (stereo not drawn)	-10	-6	0	-14	-10	-7	i	2
CN(C(=O)Oc1ccc(C(C)(C)C)cc1)c1ccccc1	-21	-3	-1	-9	-3	/	i	-5
COC(=O)N1Cc2ccccc2-n2nncc2C1	-2	-2	2	/	/	-7	/	/
CCC(=NCCCN(C)C)c1c(O)n(-c2ccc(OC)cc2)c(=O)[nH]c1=O	-101	-1	1	0	-1	-9	i	-8
c1ccc(C(CN2CCCCC2)c2ccccc2)cc1	-3	1	6	/	/	-16	/	/
N=Cc1c(O)n(-c2ccccc2)c(=O)n(-c2ccccc2)c1=O	5	-2	1	2	-4	-15	i	7
CC1=C(C(=O)O)N2C(=O)C(NC(=O)CCCC(=O)O)C2SC1 (stereo not drawn)	-7	1	1	-5	-1	/	i	5
OCCOCCO	/	0	2	-12	/	-25	/	/

Following part:
SMILES	Env fusion inh	MT1-MMP act inh	MT1-MMP act inh RFP	CSC inhib	eIF4H inh	UUG fidelity	Rce1 inhib	PABP polyA inh	others
CCc1ccc(N2C(=O)NC(=O)C(Cc3ccc(OC)cc3OC)C2=O)cc1 (stereo not drawn)	/	-1	5	10	-7	-17	i	12
O=C1C2CCCC1C(N1CCCC1)CC2 (stereo not drawn)	13	-1	2	-9	1	/	/	-6
O=C(COC(=O)Cc1ccccc1)Nc1cccnc1Cl	-13	2	4	6	-9	/	i	5
CN(C)P(=O)(N(C)C)N1CC1	-7	2	3	/	/	-8	/	/
Cc1ccc(S(=O)(=O)N2Cc3cnnn3-c3ccccc3C2C#N)cc1 (stereo not drawn)	24	4	5	/	/	-11	/	/
CC(=O)c1cc(C#N)c(N2CCN(C)CC2)nc1C	-36	-13	-1	-15	-6	/	i	4
C=CCn1c(O)c(C=NCCN(C)C)c(=O)[nH]c1=O	/	-3	4	-1	66	-6	i	54	eIF4H inh retest=-3;PABP polyA inh retest=22
Cn1c(O)c(C=NCc2ccco2)c(=O)n(C)c1=O	/	0	1	2	7	1	i	4
C[C@]12CC[C@@H](O)CC1=CCC1C2CC[C@@]2(C)C1CC[C@@H]2N (stereo partly drawn)	-213	-2	2	8	/	-18	/	/
CCOC(=O)c1c(C)[nH]c(C(=O)C(Cc2ccccc2)N(C)C)c1C (stereo not drawn)	-5	-19	-4	12	2	-4	i	-9
O=P(OCC(F)(F)C(F)F)(N1CCOCC1)N1CCOCC1	/	-3	-3	-7	-1	-11	i	-6
Cc1nc2ccccc2c(=O)n1-c1ccccn1	/	3	5	-5	-3	/	i	-4
Cc1ccc(C2C(S(C)(=O)=O)=C(O)C(=O)N2c2ccccc2)cc1 (stereo not drawn) (tested in a mixture with another compound)	/	-3	3	-4	-11	2	i	7
O=[N+]([O-])c1ccccc1-c1cc(-c2ccccc2)cc(-c2ccccc2)[n+]1Cc1ccccc1Cl	61*	/	/	36	/	/	i	/
CCC(=NCc1ccco1)c1c(O)n(C2CCCCC2)c(=O)[nH]c1=O	28	-13	-4	-17	-12	14	i	9
O=C1CC(c2ccccc2)CN1 (stereo not drawn)	-27	-1	2	5	-6	-10	i	-13
CCN(CC)CCNC(=O)c1c(O)c2ccccc2n(Cc2ccccc2)c1=O	-107	-11	-17	24	-5	-1	i	-3
CC(C)NP(=O)(NC(C)C)OP(=O)(NC(C)C)NC(C)C	-27	-2	1	-9	/	-17	/	/
